Compound activity (PubChem BioAssay)
NPYLR7 agonist: agonists of mosquito NPYLR7 receptor, primary screen, cell-based, Aedes aegypti, calcium fluorescence, mosquito biting behavior; Aedes aegypti neuropeptide Y-like receptor 7 (NPYLR7); HEK293T NPYLR7/Galpha15, GCaMP6s calcium fluorescence; activation, % at 10 µM; 270,000 tested, 0.15% active; in the data active = activation above about 40%;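 note: 0% = vehicle and 100% = reference agonist at the receptor; some compounds past the cut are filed as inactive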
NPYLR7 agonist max-min: also measured in NPYLR7 agonist; calls as there; activation, %; measured here: Max-Min RFU normalised activation; some inactives read as strong as hits;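 span of the calcium signal over five minutes; 0% = vehicle and 100% = native peptide agonist; compound fluorescence can raise it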
* = called active by the depositor; & = joins results of further samples. Only part of the results is shown; count on the stated rates, not on these rows.

SMILES | NPYLR7 agonist | NPYLR7 agonist max-min
N#CC(=Cc1cccc([N+](=O)[O-])c1)c1nnc(N2CCOCC2)n1-c1ccccc1 | 3 | 3
COc1ccc(CCC(=O)Nc2c(C)nc3c(C)cccn3c2=O)cc1 | 3 | 1
CCCC1COCCN1Cc1cc(C)[nH]n1 (stereo unspecified) | 8 | 8
CCC(C)N(Cc1cccn1C)CC(O)COc1ccc(OC)cc1 (stereo unspecified) | 3 | 11
O=C(NC1CCN(C(=O)Cc2cccc(F)c2)CC1)C1CCCCC1 | 5 | 3
CCC1CCCCN1C(=O)c1ccc(-c2ccc(F)cc2)s1 (stereo unspecified) | -12 | -4
CCOC(=O)C(CC)Sc1nc2c(c(=O)n1-c1ccccc1)SCC2 (stereo unspecified) | -4 | -5
CCCN(C)C(=O)C(C1CCCC1)N1CCN(C(=O)Nc2ccccc2)CC1 (stereo unspecified) | 10 | 18
CCOCCCn1c(SCc2ccc(OC)c(F)c2)nc2cc(C(=O)OCC)ccc21 | 4 | -2
CC(C)C(=O)N1CCCCC1C(=O)NC1CCc2ccccc2C1 (stereo unspecified) | 3&10 | 1&7
O=C(Oc1ccc([N+](=O)[O-])cc1)c1cc(Br)ccc1Cl | 7 | 7
CCN(CC)C(=O)Oc1ccc2c(ccn2Cc2ccccc2OC)c1-c1ccc(OC)c(OC)c1 | 11 | 4
O=C1C2C3C=CC(C3)C2C(=O)N1c1ccc(Cl)cc1F (stereo unspecified) | -9 | -15
CC(C)=CCC1C(=O)C(C(=O)CC(C)C)=C(O)[C@@](O)(CC=C(C)C)C1=O (stereo partly specified) | 4 | 2
Cc1nc(C2(NCc3nc(C)c(C)s3)CCCC2)no1 | -3 | -2
c1ccc(CNc2nc(-c3ccc[nH]3)cs2)cc1 | 3 | 2
CCCc1cc(=O)n(CC(N)=O)c(-n2nc(C)cc2C)n1 | 2 | 7
O=C(O)c1ccccc1C(=O)NC1=NN(c2ccccc2)CC1 | -5 | -8
O=C(NNS(=O)(=O)c1ccccc1Cl)c1ccc2c(c1)OCO2 | 4 | 4
Cc1ccc(C)c(Cn2c(CCNC(=O)c3ccco3)nc3ccccc32)c1 | -1 | -8
O=C(c1cc(Cl)c2c(c1)OCCCO2)N(CC1CCOC1)C1CC1 (stereo unspecified) | -8 | -8
Cc1onc(-c2ccccc2)c1C(=O)NNC(=O)C(C)Oc1ccc(F)cc1 (stereo unspecified) | 15 | 13
COc1ccc(Cc2n[nH]c(=O)n2-c2ccc(OC)cc2C)cc1 | -5 | -7
CC(=O)Nc1ccc(C2C3=C(CCCC3=O)OC3CCCC(=O)C32)cc1 (stereo unspecified) | 1 | -4
N#Cc1ccc(S(=O)(=O)NCC(=O)OCC(=O)N2CCCCCC2)cc1 | 12 | 6

Looked up above.
Under NPYLR7 agonist, Cc1ccc(C)c(Cn2c(CCNC(=O)c3ccco3)nc3ccccc32)c1 has -1
Under NPYLR7 agonist, O=C(c1cc(Cl)c2c(c1)OCCCO2)N(CC1CCOC1)C1CC1 (stereo unspecified) has -8

Following part
SMILES | NPYLR7 agonist | NPYLR7 agonist max-min
CCc1cccc(C)c1NC(=O)c1nn(C(C)C)c(=O)c2ccccc12 | -8 | -10
COc1ccc(Cl)cc1CC(=O)N1CCCC1C(=O)O (stereo unspecified) | 8 | 5
Cc1nc2ncnn2c(N2CCN(C(=O)c3cc(C)n(C)n3)CC2)c1Cc1ccccc1 | 29 | 16
Cc1cc(C(=O)COc2ccc(Br)cc2Cl)c(C)n1C1CCS(=O)(=O)C1 (stereo unspecified) | 3 | 2
O=C1CCC(CC(=O)N2CCC(CCC(=O)N3CCC(Cc4ccccc4)CC3)CC2)N1 (stereo unspecified) | 7 | 4
COc1ccc(C(=O)N/N=C2\C(=O)c3cccc4cccc2c34)cc1OC | 3 | 2
Cc1ccc(S(=O)(=O)NCCN2CCN(C(=O)C3=Cc4ccccc4OC3)CC2)cc1 | 0 | -7
CC(NCc1cccnc1)c1ccc(NS(C)(=O)=O)cc1 (stereo unspecified) | 2 | 11
O=C1c2ccccc2NC(c2ccc(O)cc2)N1Cc1ccco1 (stereo unspecified) | -3 | -6
Cc1ccc(N2C(=O)CC(N3CCN(Cc4cccs4)CC3)C2=O)c(C)c1 (stereo unspecified) | 1 | -4
COc1cn(CC(=O)NCc2ccc(C)cc2)c(CN2CCN(C(C)=O)CC2)cc1=O | -1 | -2
CC(=NNC(=O)NC1CCCCC1)c1ccco1 | 6 | 2
COc1cccc(CN(CCC(C)C)CC(O)COc2ccccc2C)c1 (stereo unspecified) | -2 | 6
Cc1ccc(N2C(=O)CSC2c2cccc(NC(=O)Cc3cccs3)c2)c(C)c1 (stereo unspecified) | 3 | 3
Cc1ccc(-n2nc(-c3ccc(C)o3)cc2C(=O)N2CCN(C(c3ccccc3)c3ccccc3)CC2)c(C)c1 | 2 | 10
c1cncc(COC2CCCN(Cc3cnc[nH]3)C2)c1 (stereo unspecified) | -1 | 11
CC1(C)OC(=O)N(CCCN2CCOCC2)C1(C)O (stereo unspecified) | 1 | -1
Cn1c(-c2c(=O)c3ccccc3n3cc(C(C)(C)C)[nH]c23)nc2ccccc21 | -4 | -5
CCN(CN1C(=O)NC(Cc2ccccc2)C1=O)C1CCS(=O)(=O)C1 (stereo unspecified) | -3 | 0
Cc1ccc(S(=O)(=O)N(C)CC(=O)NNC(=O)c2ccccn2)cc1 | -4 | -7
CN(C)Cc1nc2c(c(=O)[nH]1)C(C)(C)Cc1ccccc1-2 | -2 | -5
Cc1cccc(Nc2ccc(NCCNS(=O)(=O)c3ccc4ccccc4c3)nn2)n1 | 12 | 3
COc1ccc(S(=O)(=O)Cc2ccn(C)c(=O)c2)cc1 | 18 | 10
COc1cc(CCC2CCN(C(=O)c3nc4ccccc4c(=O)[nH]3)CC2)cc(OC)c1 | -1 | -4
COCCN(Cc1ccc(OC)cc1)c1c(C)nc2ccc(C(=O)N(C)CCCN(C)C)cn12 | -4 | -7
(further entries)
SMILES | NPYLR7 agonist | NPYLR7 agonist max-min
CC(C)(C)OC(=O)N1CCCN(CCSc2ccccc2)CC1 | 5 | 2
CCc1cc(C(=S)NCN2CCN(c3ccccc3)CC2)ccn1 | 0 | -2
O=C(Nc1cc(-c2ccccc2)nn1-c1ccc(Br)cc1)c1ccc(F)c(Cl)c1 | -14 | -13
COc1cc(-c2n[nH]c(-c3cccc(N)c3)n2)cc(OC)c1OC | -12 | -19
Cc1ccc(OCc2ccc(-c3nc(C#N)c(N4CCOCC4)o3)o2)cc1 | 1 | 20
O=C(NC1CC1)c1cc(F)cc(Br)c1 | 11 | 5
Cn1c(=O)c2c(nc(N3CCCC3)n2Cc2ccccc2)n(C)c1=O | -4 | -8
O=C1NC(Cc2c[nH]c3ccccc23)C(=O)N1CCN1C(=O)c2ccccc2C1=O (stereo unspecified) | 1 | 9
COc1ccccc1C(=O)N(CC(=O)N1CCc2sccc2C1c1ccc(Cl)cc1)C(C)C (stereo unspecified) | -2 | 11
COc1ccc(CNC(=O)c2cc(N(C)C3CCCCC3)nc3ccccc23)cc1OC | 5 | -1
CCc1nc2ccc(C(=O)Nc3cccc(OC)c3)cn2c1N(C)C(=O)C1CCCCC1 | -7 | -12
Cc1cc(C)c(NC(=O)Cn2cnc3c(cnn3C)c2=O)c(C)c1 | 2 | 6
CC(=O)c1ccc(C(=O)N(Cc2cccnc2)c2nc3cc(C)cc(C)c3s2)cc1 | -5 | -2
COc1ccc(S(=O)(=O)NCC2CCCN(C(=O)c3ccnn3C)C2)cc1 (stereo unspecified) | 0&-1 | -4&-2
CC(CCNC(=O)N(C)Cc1nccs1)c1ccccc1 (stereo unspecified) | 1 | -1
Nc1c(C(=O)N2CCCC2COc2ccccc2)nnc2ccccc12 (stereo unspecified) | 9 | 4
COc1cccc(CO[C@]2(C(=O)NCC3CC3)CC(OCc3ccc(F)cc3)[C@@H]3OC(C)(C)O[C@@H]3C2)c1 (stereo partly specified) | -2 | 0
COc1ccc(C(=O)c2oc3ccc(NC(=O)c4ccccn4)cc3c2C)cc1 | -3 | -2
Cc1ccc(-c2cnc(SCC(N)=O)n2-c2ccccc2F)cc1 | 6 | 5
Cn1c(=O)[nH]c(=O)c2c1n1c(-c3ccccc3)nnc1n2C | 7 | 2
N#Cc1ccc(NC(=O)C2CSCN2C(=O)c2ccc[nH]2)cc1 (stereo unspecified) | 2 | 3
CC(=O)c1ccc(OCc2nnn(CC(=O)NS(=O)(=O)c3ccc(C)cc3)c2-c2ccccc2)cc1 | 2 | -1
CC1CCc2sc(C(=O)NNS(=O)(=O)c3ccc(F)cc3F)cc2C1 (stereo unspecified) | 0 | -1
CCOC(=O)c1ccc2c(c1)nc(SCc1ccc(OC)c(F)c1)n2CCOC | 9 | 5
COc1cccc2c(=S)[nH]ccc12 | 3 | 1
Carrying on.
SMILES | NPYLR7 agonist | NPYLR7 agonist max-min
CCOC(=O)C1CSCCN1C(=O)c1cccc(S(=O)(=O)NC)c1 (stereo unspecified) | 8 | 5
Cc1cc(C)c2c(CC(=O)N3CC[C@H](CO)[C@@H](O)C3)coc2c1C | -1 | -8
CN(C)c1nc(N)nc(/C=C\c2ccco2)n1 | 15 | 11
O=C(CCC(=O)N1CCCN2CCC[C@H]2C1)NC1CCCC1 | 9 | 3
CC(NS(=O)(=O)c1cc(F)ccc1Cl)C(=O)NC1CCCC1 (stereo unspecified) | 12 | 8
Cc1c(C(=O)NCc2ccc3c(c2)OCO3)sc(=O)n1Cc1ccc(-c2ccccc2)cc1 | 10 | 2
Brc1ccc(-c2csc3ncnc(N4CCN(CC5CCCO5)CC4)c23)cc1 (stereo unspecified) | -1 | 9
O=C(c1ccc(-c2ccccc2)cc1)N1CCN(S(=O)(=O)c2ccc(F)c(F)c2)CC1 | 0 | 0
CCOc1ccc(N2C(=O)CC(Sc3ncccc3C(=O)O)C2=O)c([N+](=O)[O-])c1 (stereo unspecified) | -10 | -18
Cc1ccnc(NC(C)c2csc(C(C)C)n2)n1 (stereo unspecified) | 5 | 4
COc1ccc2c(c1)OC(C)CN(C(=O)c1c(-c3ccccc3)noc1C)C2 (stereo unspecified) | 13 | 11
CC1(C)CC(=O)c2c(nc3sc(C(=O)Nc4ccccc4F)c(N)c3c2-c2ccccc2)C1 | -3 | -6
Cc1cc(CNC(C)c2cnc(-c3ccncc3)nc2C)oc1C (stereo unspecified) | -1 | -6
CC(C)Nc1ncccc1C(=O)NCCc1cccc(F)c1 | -6 | -10
COC(=O)CCSc1nnc(-c2ccc(OC)c(OC)c2)o1 | 2 | 7
COc1cc2[nH]c(=O)c(CN3CCCC(N(C)C)CC3)cc2c(OC)c1OC (stereo unspecified) | 2 | -1
Cc1ccc(Cn2c(C)c(C(=O)NCc3cccc(Cl)c3)sc2=O)cc1 | 4 | 4
CN(C)Cc1nc(N2CCN(S(=O)(=O)c3ccc(C(C)(C)C)cc3)CC2)c2c3c(sc2n1)CCCC3 | -10 | -1
Cc1cccc(OCCCn2c(=O)oc3ccc(C)cc32)c1 | 2 | 8
CCOC(=O)CN1NC2(CCC(C(C)(C)C)CC2)NC1=S (stereo unspecified) | 0 | -4
Cc1ccc2nc(CNC(=O)Nc3ccc(N(C)C)cc3C)cn2c1 | -1 | -3
COc1cccc(C(=O)Oc2ccccc2-c2nc3c(C)cccn3c2NCc2ccccc2)c1 | 19 | 13
CCOC(=O)[C@@H]1[C@@H](OC(N)=O)C(=O)N(C(C)C)C12CCN(C(=O)c1ccc(C(F)(F)F)cc1)CC2 | 26 | 22
Cc1ccc(C(=O)Nc2c3c(nn2-c2cccc(C)c2C)CS(=O)C3)cc1 (stereo unspecified) | 16 | 16
C=CCN(CC(=O)N1CCc2sccc2C1COc1cccc(F)c1)CC(O)COCc1ccccc1 (stereo unspecified) | 17 | 15

In the list so far, 17 contain fluorine.
SMILES | NPYLR7 agonist | NPYLR7 agonist max-min
O=C(NC1CCN(C(=O)Cc2cccc(F)c2)CC1)C1CCCCC1 | 5 | 3
CCC1CCCCN1C(=O)c1ccc(-c2ccc(F)cc2)s1 (stereo unspecified) | -12 | -4
CCOCCCn1c(SCc2ccc(OC)c(F)c2)nc2cc(C(=O)OCC)ccc21 | 4 | -2
O=C1C2C3C=CC(C3)C2C(=O)N1c1ccc(Cl)cc1F (stereo unspecified) | -9 | -15
Cc1onc(-c2ccccc2)c1C(=O)NNC(=O)C(C)Oc1ccc(F)cc1 (stereo unspecified) | 15 | 13
O=C(Nc1cc(-c2ccccc2)nn1-c1ccc(Br)cc1)c1ccc(F)c(Cl)c1 | -14 | -13
O=C(NC1CC1)c1cc(F)cc(Br)c1 | 11 | 5
COc1cccc(CO[C@]2(C(=O)NCC3CC3)CC(OCc3ccc(F)cc3)[C@@H]3OC(C)(C)O[C@@H]3C2)c1 (stereo partly specified) | -2 | 0
Cc1ccc(-c2cnc(SCC(N)=O)n2-c2ccccc2F)cc1 | 6 | 5
CC1CCc2sc(C(=O)NNS(=O)(=O)c3ccc(F)cc3F)cc2C1 (stereo unspecified) | 0 | -1
CCOC(=O)c1ccc2c(c1)nc(SCc1ccc(OC)c(F)c1)n2CCOC | 9 | 5
CC(NS(=O)(=O)c1cc(F)ccc1Cl)C(=O)NC1CCCC1 (stereo unspecified) | 12 | 8
O=C(c1ccc(-c2ccccc2)cc1)N1CCN(S(=O)(=O)c2ccc(F)c(F)c2)CC1 | 0 | 0
CC1(C)CC(=O)c2c(nc3sc(C(=O)Nc4ccccc4F)c(N)c3c2-c2ccccc2)C1 | -3 | -6
CC(C)Nc1ncccc1C(=O)NCCc1cccc(F)c1 | -6 | -10
CCOC(=O)[C@@H]1[C@@H](OC(N)=O)C(=O)N(C(C)C)C12CCN(C(=O)c1ccc(C(F)(F)F)cc1)CC2 | 26 | 22
C=CCN(CC(=O)N1CCc2sccc2C1COc1cccc(F)c1)CC(O)COCc1ccccc1 (stereo unspecified) | 17 | 15
